Screening data from PubChem BioAssay.
Choline anaer gr = choline-fed anaerobic bacterial growth inhibition | Gram-negative bacterium anaerobic choline minimal medium, absorbance growth; active compounds read low; many inactives read as strong as hits in the columns shown | calls only | hit rate 0.2% among 55,000;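 active = growth z-score on choline under -2 at 7 or 20 h with little or no fall on glycerol, limits in tiers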;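 note: stock transfer was 300 nL into about 50 µL; the organism is E. coli; final concentration not given here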
Choline anaer gr early = recorded beside Choline anaer gr, whose call it bears; z-score; measured here: choline growth z-score, timepoint 1;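 score of optical density at 7 h as mean of two plates; lower means less growth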
Active calls of the source: *; i = inactive.

SMILES | Choline anaer gr | Choline anaer gr early
O=C1Nc2cc(C(=O)N3CCN(c4ccccn4)CC3)ccc2NC1CS(=O)(=O)Cc1ccc(F)cc1 (stereo unspecified) | i | -0.23
O=C(Cc1csc2nc(-c3ccc(F)cc3)cn12)NCc1ccc(F)cc1 | i | 0.55
COc1ccc(NS(=O)(=O)c2c(C)sc(C)c2-c2cc(C(F)(F)F)on2)c(OC)c1 | i | 0.37
O=S(=O)(Cc1ccccc1)N1CCN=C1N1CCN(c2cccc(Cl)c2)CC1 | i | -0.66
Cc1nc(-c2cccc(NC(=O)C3CC(=O)N(c4ccc(C)c(C)c4)C3)c2)no1 (stereo unspecified) | i | 0.47
O=C(O)c1csc(N2CCSCC2)n1 | i | 0.7
COCCCNC(=O)CCc1nc2sc3c(c2c(=O)[nH]1)CCC(C(C)(C)C)C3 (stereo unspecified) | i | -0.82
CCCCN1CC(c2nc3ccccc3n2CC(=O)N(c2ccccc2)C(C)C)CC1=O (stereo unspecified) | i | -0.58
C=CCOc1ccc(-c2nn3c(-c4ccccn4)nnc3s2)cc1 | i | 1.8
CC1=CC(C)(C)N2C(=O)C(=O)c3c4c(cc1c32)CCC4 | i | 1.1
O=C(c1cccc(-c2noc(-c3ccoc3)n2)c1)N1CCOCC1 | i | -1.4
COc1cccc(C(=O)NCCc2csc(C)n2)c1 | i | 0.05
O=C(CN1c2ccccc2S(=O)(=O)c2ccccc21)NC1CCCCC1 | i | -1.2
COc1ccc(Nc2c(C)c(C)nc3ncnn23)cc1 | i | -1.4
Cc1c(Cl)cccc1N1CCn2c1nc1c2c(=O)n(CC(=O)O)c(=O)n1C | i | -2.3
Cc1ccc(-c2c(C)noc2C)cc1S(=O)(=O)Nc1ccc(S(N)(=O)=O)cc1 | i | -0.54
CC(C)c1ccc(-c2noc(N3CCC(C(=O)N4CCN(c5ncccn5)CC4)CC3)n2)cc1 | i | 0.09
CN(C)CCNC(=O)c1nc(-c2ccc(S(=O)(=O)N(C)C)cc2)no1 | i | 0.82
CCOC(=O)Cn1c(=O)c2cnc(-c3ccccc3)nc2n(C)c1=O | i | -0.52
COC(=O)c1cc2ccsc2n1CC(=O)Nc1cc(OC)ccc1OC | i | 0.15
O=C1CCCc2cc(S(=O)(=O)N3CCC(C(=O)NCc4ccccc4Cl)CC3)ccc2N1 | i | 0.14
N[C@H](C(=O)O)[C@H](O)C(=O)O | i | 0.04
O=S(=O)(c1ccccc1Cl)N1CCC2(CC1)Nc1ccccc1-n1cccc12 | i | 0.2
CCCS(=O)(=O)N1CCCC1c1c(C)noc1C (stereo unspecified) | i | -1.1
Cc1c(C(=O)N2CCC(C(=O)NC3CCN(Cc4ccccc4)CC3)CC2)sc2nc[nH]c(=O)c12 | i | -0.9

17 compounds already listed, sorted by formula weight, lowest first:
SMILES | Choline anaer gr | Choline anaer gr early
N[C@H](C(=O)O)[C@H](O)C(=O)O | i | 0.04
O=C(O)c1csc(N2CCSCC2)n1 | i | 0.7
CC1=CC(C)(C)N2C(=O)C(=O)c3c4c(cc1c32)CCC4 | i | 1.1
COc1ccc(Nc2c(C)c(C)nc3ncnn23)cc1 | i | -1.4
COc1cccc(C(=O)NCCc2csc(C)n2)c1 | i | 0.05
C=CCOc1ccc(-c2nn3c(-c4ccccn4)nnc3s2)cc1 | i | 1.8
CCOC(=O)Cn1c(=O)c2cnc(-c3ccccc3)nc2n(C)c1=O | i | -0.52
CN(C)CCNC(=O)c1nc(-c2ccc(S(=O)(=O)N(C)C)cc2)no1 | i | 0.82
O=C(Cc1csc2nc(-c3ccc(F)cc3)cn12)NCc1ccc(F)cc1 | i | 0.55
Cc1nc(-c2cccc(NC(=O)C3CC(=O)N(c4ccc(C)c(C)c4)C3)c2)no1 (stereo unspecified) | i | 0.47
COCCCNC(=O)CCc1nc2sc3c(c2c(=O)[nH]1)CCC(C(C)(C)C)C3 (stereo unspecified) | i | -0.82
O=S(=O)(c1ccccc1Cl)N1CCC2(CC1)Nc1ccccc1-n1cccc12 | i | 0.2
O=S(=O)(Cc1ccccc1)N1CCN=C1N1CCN(c2cccc(Cl)c2)CC1 | i | -0.66
Cc1ccc(-c2c(C)noc2C)cc1S(=O)(=O)Nc1ccc(S(N)(=O)=O)cc1 | i | -0.54
O=C1CCCc2cc(S(=O)(=O)N3CCC(C(=O)NCc4ccccc4Cl)CC3)ccc2N1 | i | 0.14
Cc1c(C(=O)N2CCC(C(=O)NC3CCN(Cc4ccccc4)CC3)CC2)sc2nc[nH]c(=O)c12 | i | -0.9
O=C1Nc2cc(C(=O)N3CCN(c4ccccn4)CC3)ccc2NC1CS(=O)(=O)Cc1ccc(F)cc1 (stereo unspecified) | i | -0.23

Next entries
SMILES | Choline anaer gr | Choline anaer gr early
O=C(Cn1nc2c3sc(N4CCCC4)nc3ncn2c1=O)Nc1ccc(F)cc1 | i | 0.34
CCOc1ccc(CC(=O)N2CCC(n3nc(-c4ccccc4)oc3=O)CC2)cc1 | i | -0.36
Cc1ccc(C)c(S(=O)(=O)Nc2cc3[nH]c(=O)[nH]c3cc2C)c1 | i | 0.88
Cc1cc(=O)n(CC(=O)O)c2ccccc12 | i | -0.74
O=C(NCc1c(-c2ccc(F)cc2)nc2n1CCS2)c1ccc(F)c(F)c1 | i | -0.28
c1ccc(-c2n[nH]c3c2cnc2cc4c(cc23)OCCO4)cc1 | i | 1.1
CC(NC(=O)c1cccnc1)c1nc(-c2ccccc2)no1 (stereo unspecified) | i | -0.85
CCCCSc1nnc2n(C)c(=O)c3sccc3n12 | i | -0.29
CNC(=O)CCC(=O)N1c2ccccc2NC2=C(C(=O)CC(C)(C)C2)C1c1ccccc1 (stereo unspecified) | i | 0.12
Cn1cc(C(=O)NCc2ccc(F)cc2)c2[nH]c(=O)n(-c3ccccc3)c(=O)c21 | i | -0.54
COc1ccc(CNC(=O)c2nnn(Cc3nc(-c4ccc(C)cc4)oc3C)c2N)cc1OC | i | -0.35
COc1ccc(Br)cc1C1CC(=O)Nc2c1c(C)nn2-c1nc2ccccc2n1C (stereo unspecified) | i | 0.99
CC(C)CNC(=O)c1ccc2c(=O)n(C(C)C)c3nn(CC(=O)NC(C)(C)C)c(=O)n3c2c1 | i | -0.22
Cc1ccc(-c2noc(-c3cn(Cc4ccc(NS(=O)(=O)c5ccc(C)cc5C)cc4)cn3)n2)cc1 | i | 0.65
COc1ccc(NS(=O)(=O)c2ccc3c(c2)NC(=O)CC(=O)N3)cc1 | i | 0.89
COc1ccc2[nH]cc(CCNC(=O)Cn3nc(C)c4nn(-c5ccccc5)c(C)c4c3=O)c2c1 | i | -0.68
CCCCN(C)c1ccc2nnc(-c3ccccc3)n2n1 | i | 0.38
CCC(C)NCc1ccc(-c2ccc(OC)c(Cl)c2)o1 (stereo unspecified) | i | 0.08
Cc1cccc(N2CCN(C(=O)C3CCN(S(=O)(=O)c4cccc5nsnc45)CC3)CC2C)c1 (stereo unspecified) | i | -0.1
CCOC(=O)c1cc2n(n1)CC(C)(C(=O)NC1CCCC1)N(c1cc(C)cc(C)c1)C2=O (stereo unspecified) | i | -1.7
C=CCn1c(SCc2ccccc2)nc2c(-c3ccccc3)cn(C)c2c1=O | i | -1.3
CCc1nc(-c2csc(S(=O)(=O)N3CCN(c4ccc(F)cc4)CC3)c2)no1 | i | 1.3
CC(C(=O)N1CCOCC1)N1C(=O)CCCc2ccccc21 (stereo unspecified) | i | 0.29
CC(C)CCNC(=O)N1Cc2cccn2-c2ccccc21 | i | -1.5
Cc1sc(-c2cc(C(F)(F)F)[nH]n2)cc1S(=O)(=O)N1CCCCCC1 | i | 0.97
New compounds follow:
SMILES | Choline anaer gr | Choline anaer gr early
Cc1cccc(C2CC(=O)NC3=C2C(=O)CCC3)c1 (stereo unspecified) | i | -0.14
Cc1nn(S(=O)(=O)c2ccc(Br)cc2)c(C)c1S(=O)(=O)N1CCCC(C)C1 (stereo unspecified) | i | -1
Cc1nn(C(=O)Nc2ccccc2Br)c2ccccc12 | i | 2.4
COc1cccc(-c2noc(NC3CC3)n2)c1 | i | -2.6
CCc1ccc2c(c1)-c1ccccc1S(=O)(=O)N2CC(=O)N1CCCCC1 | i | 0.76
Cc1ccc(C(C)NC(=O)C2CCN(c3ncc(-c4cccc(C)c4)cn3)CC2)cc1 (stereo unspecified) | i | -0.38
O=S(=O)(c1ccccc1)c1nnn2c1nc(NCc1ccc(F)cc1)c1ccccc12 | i | -0.27
CC(C)N1CCN(C(=O)C2CCN(c3cncnc3N3CCCCC3)CC2)CC1 | i | 0.56
O=C(CN1C(=O)C2CCCN2C(=O)c2ccccc21)NCCCN1CCCCC1 (stereo unspecified) | i | 0.51
O=C(NC1CCCc2ccccc21)c1cccc(Nc2cc(-c3ccccc3)ncn2)c1 (stereo unspecified) | i | -1.5
CCCNCc1cc(=O)n2[nH]c(NCc3ccc(CC)cc3)nc2n1 | i | -1.1
CCN1C(=O)c2cc3ccccc3n2CC1(C)C(=O)NC1CCCC1 (stereo unspecified) | i | -0.81
CCN(Cc1ccccc1)c1ccc(C(=O)O)cc1NS(=O)(=O)c1ccc(OC)cc1 | i | -1.1
CCS(=O)(=O)c1ccc(-c2ccc(NC(=O)CCC3CCCCC3)cc2)nn1 | i | -0.04
O=C(Nc1ccc(Br)cc1)c1ccc(=O)n(Cc2ccccc2)c1 | i | -0.24
O=C1CCCc2cc(S(=O)(=O)N3CCCC(C(=O)NCCC4=CCCCC4)C3)ccc2N1 (stereo unspecified) | i | 1.4
COC(=O)c1ncn2c1C(=O)N(Cc1ccccc1)C(C)(C(=O)NC1CCCC1)C2 (stereo unspecified) | i | 1.2
Oc1ccc2ccccc2c1 | i | -1.6
COc1ccc(-c2onc(C)c2C)cc1S(=O)(=O)CCC(=O)N1CCc2ccccc2C1 | i | -0.48
CN(Cc1ccccc1)S(=O)(=O)c1cc(-c2noc(C3CC3)n2)cs1 | i | 1.5
O=C(NC1CCCC1)C1CCN(c2cc(-c3ccccc3)ncn2)CC1 | i | -0.32
O=C(NCc1cccnc1)c1nnc(-c2ccc(S(=O)(=O)N3CCCC3)cc2)o1 | i | -0.5
Cc1nn(C)c(C)c1CCNS(=O)(=O)c1ccc(Br)s1 | i | -0.21
CCC(=O)Nc1nc2c(C)cc(NC(=O)Nc3ccccc3CC)cc2s1 | i | -1.4
O=c1ccn(-c2cccc(F)c2)nc1-c1nc(-c2ccc(F)cc2)no1 | i | -0.07
Continued.
SMILES | Choline anaer gr | Choline anaer gr early
Clc1ccc(-n2ncc3c(NC4CCCC4)ncnc32)cc1 | i | -1.2
CCn1c(C)c(C2=CCN(S(=O)(=O)c3ccc(F)c(C)c3)CC2)c2ccccc21 | i | 0.78
COCCn1nnc2cc(S(=O)(=O)N3CCCCC3C(=O)NCCN3CCCC3)ccc21 (stereo unspecified) | i | 0.83
CC(C)NS(=O)(=O)c1ccc2c(c1)C(C)(C)CN2C(=O)C1CC1 | i | -1.5
O=C(Cc1ccc(Cl)cc1)Nc1nnc(SCc2nnc(-c3ccccc3)o2)s1 | i | 0.65
O=C1NC(=O)C(Cc2ccc(O)cc2)N1 (stereo unspecified) | i | -0.36
COc1cccc(-c2noc(-c3nn(-c4ccc(Cl)cc4)ccc3=O)n2)c1OC | i | -0.92
CCOc1ccccc1C1C2=C(CC(c3ccc(Cl)cc3)CC2=O)Nc2onc(C)c21 (stereo unspecified) | i | 0.48
COc1ccc(NC(=O)CN(C)S(=O)(=O)c2cc3c(cc2C)NC(=O)CO3)c(OC)c1 | i | 1.6
Cn1cc(-c2nc(-c3ccccc3Cl)no2)c(=O)c2cc(F)c(N3CCCCC3)cc21 | i | 0.33
CCN1CCCC1CNC(=O)CSCc1cnn(-c2ccccc2)c1-n1cccc1 (stereo unspecified) | i | -0.84
CCOC(=O)c1cnn(-c2cc(C)nc3c(-c4ccc(Cl)cc4)c(C(F)(F)F)nn23)c1N | i | 0.65
CCOc1ccc(N2C(=O)c3c(C(=O)OC)ncn3CC2(C)C(=O)NC2CCCC2)cc1 (stereo unspecified) | i | 0.07
COc1ccc(OC)c(NC(=O)NCCc2c(C)nn(C)c2C)c1 | i | -0.78
O=C1CN(Cc2ccc(F)cc2)S(=O)(=O)c2ccccc2N1Cc1ccccc1 | i | -0.61
CCCc1noc(-c2cc(S(=O)(=O)N3CCN(c4ccccc4)CC3)ccc2OC)n1 | i | -0.6
NC(=O)c1sc(=S)n2c1[nH]c(=O)c1ccc(Cl)cc12 | i | -1.6
COc1cccc(CNc2nc3nc(C)cc(C)n3n2)c1 | i | -1.2
COc1ccccc1-c1nc(Cn2nnc(-c3nc(-c4ccc5c(c4)OCO5)no3)c2C)c(C)o1 | i | 0.02
Cc1nc2c(C(=O)NCc3ccc4c(c3)OCO4)c[nH]n2c(=O)c1Cl | i | 0.08
Cc1nc(-c2cc(S(=O)(=O)N3CCN(C4CCCCC4)CC3)c(C)s2)sc1C | i | 0.59
CCSc1nnc(-c2nn(C)c3c2CN(C(=O)C(C)(C)C)CC3)n1C | i | 0.2
COc1ccc(CCNC(=O)c2n[nH]nc2Nc2ccc(C)cc2)cc1OC | i | -0.11
Cc1ccc(C)c(S(=O)(=O)N2CCC(c3noc(-c4cccc(F)c4)n3)CC2)c1 | i | 1.6
Fc1ccc(OCc2nnc3sc(CCCc4ccccc4)nn23)cc1 | i | 0.75
The list continues.
SMILES | Choline anaer gr | Choline anaer gr early
Cc1ccccc1-c1nc(N)n(C(=O)C2CC2)n1 | i | 0.8
COc1ccc(C)cc1N(C)C(=O)Cc1c(C(=O)O)n(C)c2ccccc12 | i | -0.37
Cn1nnc2c(NCC3CCCO3)ncnc21 (stereo unspecified) | i | -1.1
CCCN(CCC)C(=O)Cn1c(SCc2ccc(F)cc2)nc2cccnc21 | i | -0.62
Cc1ccc(CSc2nnc3c(=O)n(-c4cc(C)cc(C)c4)ccn23)cc1 | i | -0.17
O=C(C1CC(=O)N(c2ccc3c(c2)CCN3C(=O)C2CC2)C1)N1CCCC1 (stereo unspecified) | i | -0.41
Cc1ccc(C(=O)Cn2nc3n(CC(C)C)c(=O)c4ccc(C(=O)NC(C)C)cc4n3c2=O)cc1 | i | 0.87
O=C(NCc1ccc(Cl)cc1)c1n[nH]nc1Nc1cccc(F)c1 | i | -0.1
O=C(CN1C(=O)C(c2ccccc2)Oc2cccnc21)NC1CCCCC1 (stereo unspecified) | i | 0.54

A portion of the library; the hit share may differ from the screen's.
